High-throughput results from PubChem BioAssay.
RN4220 kill = kills Staphylococcus aureus RN4220. S. aureus RN4220 growth, OD600, 16 h. inhibition, % (no concentration beside the values). 330,000 tested, 0.33% active;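 active means z-score of -3 or lower and OD600 up to 0.18 on both plates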;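 further: plate controls were untreated cells for no effect and reference antibiotic for full effect; stock transfer was 100 nL into about 80 µL; one replicate is shown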
PrP 5UTR inh = suppresses PrP 5' UTR mRNA reporter expression; cell-based PrP 5' UTR mRNA reporter, plate reader; inhibition, % (no concentration beside the values); 340,000 tested, 0.35% active;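 active means every replicate at 50% or more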;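 further: 0 = median of the neutral control wells; tested in H4 reporter cells; numbers are from one replicate; inactives centre near -14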
BJeLR lethal = kills HRASV12-expressing BJeLR cells | BJeLR (HRASV12) viability, CellTiter-Glo ATP luminescence, 48 h; reference of the scale not given here | inhibition, % (concentration not given with the values) | 300,000 tested, 0.17% active | AID 1554;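 active means replicate mean above 50%; inconclusive means above 50% but judged a plate artefact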;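 further: 50 nL library stock added to about 25 µL; numbers are from one replicate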
Sa ugtP lethal = kills S. aureus RN4220 lacking UgtP; 330,000 tested, 0.54% active; growth inhibition, % (test concentration not listed); S. aureus RN4220 ugtP deletion, OD600 growth, 16 h; some inactives read as strong as hits;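 active means z-score under -3 and OD600 up to 0.15 on both plates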;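 further: plate controls were untreated wells for no effect and antibiotic for full effect; wells of about 80 µL received 100 nL stock; the first replicate is given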
Bead autofluor = flagged as autofluorescent in microsphere protease counterscreen; fluorescence intensity (test concentration not listed); compound autofluorescence counterscreen, microsphere flow cytometry; active compounds read high; 360,000 tested, 3.1% active; AID 624483;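 active means at least 3 SD above the mean of all compounds, about 16000 in these data; inconclusive means too few beads counted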;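 further: 100 nL of 1 mM stock went into each well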
Mtb hypoxia rep = reduces hypoxia-regulated biosensor signal in M. tuberculosis; M. tuberculosis hypoxia-regulated fluorescent reporter, fluorescence; fluorescence inhibition, % (test concentration not listed); 300,000 tested, 0.1% active;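 active means 35 to 45% if threefold the growth effect, above 45% if 1.5-fold the growth effect; inactive means the rest, general growth blockers included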;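 further: wells of about 50 µL received 100 nL stock; 0% = vehicle wells and 100% = reference inhibitor wells; whole bacteria with a GFP reporter of the hypoxia response; strong numbers were not always called active; many hits fall short of the cut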
Mtb hypoxia rep growth = also measured in Mtb hypoxia rep; calls as there; growth inhibition, %; measured here: M. tuberculosis growth (absorbance);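 0% = vehicle and 100% = reference antibiotic; read after six days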
* marks the source's active call; other numbers are inactive results; ? = inconclusive; . = not tested or not shown.

SMILES	RN4220 kill	PrP 5UTR inh	BJeLR lethal	Sa ugtP lethal	Bead autofluor	Mtb hypoxia rep	Mtb hypoxia rep growth
CCC1(C)Cc2c(sc3c2c(=O)n(C)c2nnc(SCC(=O)c4ccccc4)n32)CO1 (centres undefined)	8.7	-20	5	2	20408*	6	8
COc1ccc(Cl)cc1C(=O)NNC(=O)C1CCCO1 (centres undefined)	3.6	-17	.	4	?	7	1
COc1ccc(CN2[C@@H](CC(C)=O)c3ccc(/C=C/C(C)=O)cc3S2(=O)=O)cc1	.	-25	14	.	9572	.	.
COc1ccc(CCNC(=O)CCCCCN2C(=O)[C@@H]3Cc4ccccc4CN3C2=O)cc1OC	3.7	-21	-6	13	5551	-1	1
NC(=O)C1CCCN(S(=O)(=O)c2ccc3ccccc3c2)C1 (centres undefined)	3.7	4	4	5	6044	-1	-6
COc1cccc(NC(=O)CSc2nnc(Cn3nnc4ccccc43)n2C)c1	-7.7	-5	-4	-2	2408	3	2
Cc1ccc(C(C)C)cc1OCC(=O)NNC(=O)Nc1ccccc1	0.4	-9	7	10	3578	5	6
Cc1cccc2nc(CNC(=O)CC3C(=O)NCCN3Cc3cccc(F)c3)cn12 (centres undefined)	1.2	-12	-6	5	6280	2	-7
Cc1ccccc1NC(=O)Nc1nnc(CC(=O)NCc2ccccc2)s1	3.5	-3	0	-4	6897	5	1
CC(NC(=O)c1nc[nH]c1C(=O)NCCCCCN)C(=O)OCc1ccccc1 (centres undefined)	5.8	.	.	1	.	5	-2
NCCCCC1CNC(=S)N1CC1CCCCC1 (centres undefined)	3.2	.	.	-7	.	.	.
CCOc1c(Nc2ccc(C(C)C)cc2)c(=O)c1=O	3.8	-8	-6	0	4812	-1	-2
O=C(c1cccs1)N(Cc1ccco1)Cc1cc2ccccc2[nH]c1=O	3.1	-5	4	-1	4705	3	6
COC(=O)Cn1c(=NC(=O)c2ccc(OC)cc2)sc2cc(OC)ccc21	0.2	-3	7	6	2045	5	2
COc1cc(C(=S)N2CCCC2)ccc1OCc1ccc(C)cc1	7.4	-39	-2	5	4088	0	3
CCOc1cc(OCC)cc(C(=O)Nc2cccc(C(C)=O)c2)c1	5.4	-20	-19	13	10929	-2	4
COc1ccc(CNC[C@@H](CCCCN(C)Cc2ccc(OC)cc2)N2C[C@H](c3ccccc3)N(CCc3ccc(Cl)c(Cl)c3)C(=O)C2=O)cc1	.	-11	8	.	3874	.	.
CC1CCCC(C)N1C(=O)COc1ccc(F)cc1 (centres undefined)	6.6	-13	4	4	4615	15	12
COCCN(C(=O)CSc1n[nH]c(-c2ccc(OC)cc2)n1)c1c(N)n(Cc2ccccc2)c(=O)[nH]c1=O	3.2	-11	6	1	?	13	-1
COc1ccc([N+](=O)[O-])c(OC)c1C(=O)NC(=O)Nc1c(F)c(F)c(F)c(F)c1F	6.0	-9	3	-2	3401	-10	11
CN(C)CCCC1Sc2ccccc2Sc2ccccc21 (centres undefined)	-2.1	-22	5	5	4233	20	12
CSCCC(NC(=O)c1ccccc1Br)C(=O)NCC1CCCCC1 (centres undefined)	1.4	-7	5	4	4572	14	3
O=C(OCC(F)(F)C(F)F)c1ccccc1C(=O)Oc1ccc(F)cc1F	5.5	-8	-5	2	20051*	4	4
O=C1CCCCN1CCc1c[nH]c2ccccc12	0.3	-30	-7	2	5007	.	.
Cc1ccccc1NC(=O)c1snc2c(=O)[nH]cnc12	5.6	.	10	7	.	5	-1
CC(=O)Nc1ccccc1NC(=O)C/C(C)=N/NC(=O)C(=O)N1CCCCC1	.	-12	-8	.	4466	.	.
CCOc1ccccc1NC(=O)COC(=O)c1c(CC)noc1C	3.5	-18	.	4	4425	-9	-7
COc1ccc(-c2csc(NS(=O)(=O)c3ccc([N+](=O)[O-])cc3)n2)cc1	4.1	-20	-9	69	2063	-7	2
Cc1nn(CC(=O)Nc2ccc3c(c2)OCO3)c(C)c1[N+](=O)[O-]	1.8	-23	-7	-3	4468	-1	0
O=C(O)CCc1nnc2n(Cc3ccc(F)cc3)c(=O)c3ccccc3n12	3.3	3	-7	-5	4149	.	.
Cc1ccc(Nc2nc(N)nc(CN3CCN(C)CC3)n2)cc1	6.1	-36	-6	6	3047	5	4
Cc1nc(N2CCN(c3ccccn3)CC2)c2c(C)c(C(=O)Nc3ccc(F)cc3F)sc2n1	-5.5	-25	-9	27	4504	2	4
CCc1cccc2c(C(=O)CSc3nncn3-c3ccc(OC)cc3)c[nH]c12	3.9	-32	-4	-8	2304	9	1
NS(=O)(=O)c1ccc(NC(=O)C2CCCN(S(=O)(=O)c3ccc(F)cc3)C2)cc1 (centres undefined)	1.0	-25	5	8	9055	12	13
Cc1nn(C2CCS(=O)(=O)C2)c(Cl)c1/C=C/C(=O)OCC(=O)N(C)C (centres undefined)	3.6	-4	-8	-10	3007	-2	-1
CC(C)(C)C(=O)CSc1ncnc2sc3c(c12)CCC3	3.7	-27	11	16	5448	10	12
C=CCn1c(SCC(=O)NC2CCS(=O)(=O)C2)nnc1-c1cc2c(s1)CCC(CC)C2 (centres undefined)	-4.8	-38	5	7	2024	0	-1
COC(=O)c1ccc2c(c1)c(-c1ccccc1)c(-c1ccccc1)n2C	-14	85*	.	-1	3921	-7	6
O=S(=O)(c1ccc2ccccc2c1)N1CCN(c2ccc(O)cc2)CC1	9.2	3	.	5	3907	23	46
CN1C(=O)c2cccc3c(S(=O)(=O)NCCc4ccccc4)ccc1c23	0.6	-18	-7	5	5127	15	10
COc1ccc(OC)c(/C=N/NC(=O)CCc2ccc(O)c(O)c2)c1	.	-4	1	.	2163	.	.
Cc1c(C(=O)Nc2ccccc2)sc2nc(-c3ccccc3)cn12	0.9	-10	-3	-16	23471*	0	-1
O=C(N1CCOCC1)N(CCN1CCOCC1)Cc1cccc2ccccc12	5.6	-21	10	1	2498	.	.
CN(C(=O)CSc1nccc(=O)[nH]1)C1CCCCC1	1.2	.	.	3	.	8	8
CC1Cc2nc(SCC(=O)NCC3CCCO3)n(C)c(=O)c2S1 (centres undefined)	0.0	8	-9	-9	.	2	-18

By substructure: the entries above with a Cl atom.
SMILES	RN4220 kill	PrP 5UTR inh	BJeLR lethal	Sa ugtP lethal	Bead autofluor	Mtb hypoxia rep	Mtb hypoxia rep growth
COc1ccc(Cl)cc1C(=O)NNC(=O)C1CCCO1 (centres undefined)	3.6	-17	.	4	?	7	1
COc1ccc(CNC[C@@H](CCCCN(C)Cc2ccc(OC)cc2)N2C[C@H](c3ccccc3)N(CCc3ccc(Cl)c(Cl)c3)C(=O)C2=O)cc1	.	-11	8	.	3874	.	.
Cc1nn(C2CCS(=O)(=O)C2)c(Cl)c1/C=C/C(=O)OCC(=O)N(C)C (centres undefined)	3.6	-4	-8	-10	3007	-2	-1

Further records.
SMILES	RN4220 kill	PrP 5UTR inh	BJeLR lethal	Sa ugtP lethal	Bead autofluor	Mtb hypoxia rep	Mtb hypoxia rep growth
COc1ccccc1N1CCN(C(c2ccc(N(C)C)cc2)c2nnnn2CCc2ccccc2)CC1 (centres undefined)	1.8	-1	6	-1	5473	.	.
COc1cccc(C(=O)C2CCCN(Cc3ccc4nsnc4c3)C2)c1 (centres undefined)	1.9	17	0	16	4413	7	7
CCCCc1cc(=O)oc2cc(C)cc(OCC(=O)NCc3ccncc3)c12	1.3	3	5	-5	5189	6	18
CCC12CN(C(=O)c3ccc(OC)cc3)CC(CC)(CN(C(=O)c3ccc(OC)cc3)C1)C2=O	-0.6	-4	0	2	4757	.	.
Cc1c(NC(=O)C(C)OC(=O)c2cccc(S(=O)(=O)N3CCOCC3)c2)c(=O)n(-c2ccccc2)n1C (centres undefined)	6.3	.	-3	1	.	8	1
CCOc1ccc(NC(=S)N(CCc2c(C)[nH]c3ccc(C)cc23)Cc2cccnc2)cc1	8.3	-18	2	2	4202	13	15
C=CCn1c(SCc2cc(=O)n3ccsc3n2)nc2ccccc2c1=O	2.4	-19	-1	10	3246	9	11
Cc1ccc(OCCNC(=O)/C=C/c2ccccc2)cc1C	1.3	-19	6	40	2357	8	4
Cc1cc(C(=O)OCC(=O)NCCN2C(=O)CSC2=O)ccc1[N+](=O)[O-]	2.9	-4	.	4	.	-1	-2
COc1ccc(C(=O)C[n+]2cccc3cc(OC)ccc32)cc1	-3.9	-4	19	10	4239	3	5
COc1ccc(OC)c(NC(=O)c2ccc3c(c2)C(=O)N(c2ccc(OC(C)=O)cc2)C3=O)c1	2.3	-20	7	-4	3723	-12	-1
CC1Cc2cc(/C(O)=C3/C(=O)C(=O)N(CCCN(C)C)C3c3ccncc3)ccc2O1 (centres undefined)	-3.7	-21	-2	2	4037	.	.
Cc1ccc(NC(=O)C(C)OC(=O)Cc2c[nH]c3ccccc23)cc1S(=O)(=O)N1CCOCC1 (centres undefined)	0.3	-3	-1	0	?	5	15
CSc1nc2nc3c(c(=O)n2[nH]1)CCCC3	-8.7	-19	-3	-6	3166	13	27
Cc1ccc(C(=O)c2cc([N+](=O)[O-])ccc2N2CCOCC2)c(C)c1	-2.2	75*	40	4	2677	.	.
Cc1ccc(NC(=O)CSc2nnc(COc3ccccc3C)o2)cc1	6.4	-21	1	8	3163	2	2
Cc1c(C(=O)Nc2ccc(Oc3ccccc3)cc2)sc2nc3n(c(=O)c12)CCC3	-3.1	-8	-2	10	3164	-2	11
Cc1cccc(N(CC(=O)NC(C)C)C(=O)c2ccc(N3CCCC3)nc2)c1	6.3	-22	-5	7	4565	12	3
CC(C)NC(=O)c1ccccc1NC(=O)CN(c1ccc2c(c1)OCO2)S(C)(=O)=O	3.5	-18	-2	-2	7910	3	4
O=C(NCc1cccc(F)c1F)C1CCC(=O)N(C2CC2)C1 (centres undefined)	5.9	-10	4	13	4499	3	-6
CC(NS(=O)(=O)OCC(Cl)(Cl)Cl)c1ccc(Br)cc1 (centres undefined)	.	-29	5	.	4047	.	.
CC[C@@H]1C=C(C(=O)O)[C@H](c2ccc(OC)c(OC)c2)N1S(=O)(=O)c1ccc(C)cc1	1.8	-18	.	6	2946	-2	2
OCCN(Cc1ccccc1)CC(O)COc1ccc2c(c1)OCO2 (centres undefined)	3.7	0	6	5	3930	-11	2
C=CC(C)(C)c1c2occc2c(O)c2ccc(=O)oc12	8.6	4	.	-1	4215	.	.
Oc1ccc(C(c2nnnn2CCc2ccccc2)N2CCN(c3nc4ccccc4s3)CC2)cc1 (centres undefined)	-3.5	-14	5	22	4968	4	16
COCCNc1nnc(SCC(=O)Nc2sc3c(c2C(=O)c2ccccc2)CCCC3)s1	0.5	-43	11	-2	2449	10	3
COc1ccccc1N1CCN(S(=O)(=O)CCNC(=O)C2CCCC2)CC1	0.0	11	3	-4	.	-6	-7
CCOC(=O)CSC1=C(C#N)C(c2ccccc2OC)CC(=O)N1 (centres undefined)	3.1	-4	16	3	6192	7	6
CCc1ccc2nc(SCC(=O)Nc3ccccc3N3CCOCC3)c(C#N)cc2c1	.	-21	33	.	4736	.	.
O=S(=O)(c1ccc(OCC2CO2)cc1)c1ccc(OCC2CO2)cc1 (centres undefined)	8.6	-28	-10	-6	1920	4	2
Cc1csc(NC(=O)CSc2nc(=O)cc(N)n2-c2ccc(F)cc2)n1	1.7	-9	16	-2	4511	-2	1
COc1ccc(-n2c(SCC(=O)Nc3cccc4ccccc34)nc(O)cc2=O)cc1	6.6	-2	3	7	3200	9	0
CCCN1C(=O)NC2(O)C(=O)c3ccccc3C12O (centres undefined)	0.6	-7	1	-4	.	3	13
C=CCn1c(SCC(=O)N2CCOCC2)nc2c([nH]c3ccccc32)c1=O	3.4	-21	2	-2	5885	5	10
Oc1c(Br)cc(/C=N/n2c(-c3ccccc3)n[nH]c2=S)cc1Br	.	-29	1	.	3988	.	.
O=C(COC(=O)c1ccccc1Br)NCCc1ccc(F)cc1	-0.6	-8	-3	5	2876	4	6
O=C(NN=Cc1ccc(Cl)c([N+](=O)[O-])c1)c1cnccn1	2.0	.	.	3	.	-17	-13
CS(=O)(=O)N1CCCC(C(=O)NCCCN2CCN(Cc3ccccc3)CC2)C1 (centres undefined)	0.8	-45	-3	3	9974	13	-3
